Screening results from PubChem BioAssay.
Sa helicase inh – S. aureus DNA helicase inhibition; inhibition, %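 (tested at about 80 µM)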; 120,000 tested, 0.05% active; purified S. aureus helicase, fluorescence unwinding assay; about half of the hits fall short of the stated cut; AID 485395;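 active = both duplicates at 50% or more, or one of them with a favoured structure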;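 also: 0% = mean of negative control wells and 100% = mean of positive control wells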
MgrA-DNA mod – alters Staphylococcus aureus MgrA binding to DNA. 84,000 tested, 0.13% active. fluorescence polarization. inhibition, %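 (about 10 µg/mL by stock and volumes)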;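 active = above 50% in either of two replicates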;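 also: 0% = protein plus DNA without compound and 100% = DNA alone without protein; higher means less MgrA bound to DNA so lower polarization; one replicate is shown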
* = called active by the depositor; . = not tested or not shown. Only part of the results is shown, so the mix of outcomes need not match the whole.

Values in the order – Sa helicase inh | MgrA-DNA mod
COC(=O)c1c(C)oc2ccc(NS(=O)(=O)c3ccc(Cl)c([N+](=O)[O-])c3)cc12
→ . | 0.1
O=C1CC(Nc2ccc(F)cc2)C(=O)N1Cc1ccccc1 (stereo not drawn)
→ -13.0 | .
S=c1n(-c2ccccc2)cnn1CN1CCCCC1
→ 7.0 | 2.2
COc1ccc(S(=O)(=O)N(CC(=O)Nc2cccc(C(F)(F)F)c2)c2ccc(C)cc2)cc1OC
→ . | -0.7
O=c1/c(=C/c2ccccn2)sc2n1CN(c1ccccc1)CN=2
→ 7.0 | 1.1
Cc1ccccc1-n1c(=O)cc(NCc2ccc3c(c2)OCO3)[nH]c1=O
→ 6.0 | .
COc1ccc(OC)c(C(=O)c2ccc([N+](=O)[O-])cc2)c1
→ . | -1.1
CC(NC=O)c1ccc(Br)cc1 (stereo not drawn)
→ -2.0 | .
CCC(C)N(Cc1nc(N)nc(Nc2ccccc2C)n1)Cc1nc(N)nc(Nc2ccccc2C)n1 (stereo not drawn)
→ -5.0 | .
O=S(=O)(c1ccccc1)c1nc(-c2cccs2)oc1NCCCn1ccnc1
→ 14.0 | -0.7
CCOC(=O)CNc1cccc(C(=O)O)c1
→ 2.0 | -0.2
O=C1CCCC(O)=C1N=Nc1cccc(C(=O)O)c1
→ 5.0 | .
O=C1C(Sc2ccccc2)=C/C(=N/S(=O)(=O)c2cccs2)c2ccccc21
→ 16.0 | 28.2
CC(=O)n1sc2nc(C)cc(C)c2c1=O
→ . | 26.6
Cc1cc(NC(=O)c2ccc(N)cc2)c(N)cc1N
→ 7.0 | -0.4
CC1CCN(S(=O)(=O)N(C)C)CC1
→ 10.0 | 1.6
COC(=O)c1ccccc1NC(=O)C(C)N1c2cccc3cccc(c23)S1(=O)=O (stereo not drawn)
→ 11.0 | 1.4
CC(C)(C)C(=O)NCc1ccc2c3c(cccc13)C(=O)N2
→ -4.0 | .
Cc1cc(C)c(NC(=O)CC2SC(N)=NC2=O)c(C)c1 (stereo not drawn)
→ . | -0.6
Cc1cccc(NC(=S)N2CCC(NC(=O)c3ccco3)CC2)c1
→ -4.0 | -0.1
CCOc1ccccc1N1CCN(C(=O)c2cc3c(C)cc(C)cc3[nH]2)CC1
→ -13.0 | .
O=C(c1cc(=O)[nH]c2ccccc12)N1CCN(Cc2ccccc2)CC1
→ -2.0 | .
c1ccc(COCC(CSc2ccccc2)OCc2ccccc2)cc1 (stereo not drawn)
→ 10.0 | 6.2
Cc1cc(C)n2c(SC(CNS(=O)(=O)c3ccccc3)c3ccccc3)nnc2n1 (stereo not drawn)
→ 11.0 | 0.8
c1ccc(OCCOc2ncnc3ccccc23)cc1
→ -6.0 | .
CCN(C(=O)CN1CCCCC1)c1c(N)n(Cc2ccccc2)c(=O)[nH]c1=O
→ 0.0 | .
COc1ccc2c(c1C)OC(C)(C)CC2=O
→ 8.0 | .
CC(O)c1nc2ccccc2n1C(C)C (stereo not drawn)
→ -10.0 | .
Cc1cc(Cl)nc(Cl)c1C(=O)NC(=O)NCc1ccccc1
→ 10.0 | -0.4
Cc1ccc(C(=O)ONc2ccc(N=O)cc2)cc1
→ 11.0 | 1.1
COC(=O)CSc1nc(N2CCOCC2)nc(N2CCOCC2)n1
→ 0.0 | 1.4
COc1ccc(C2=NN(C(=O)CCC(=O)O)C(c3ccc(OC)cc3)C2)cc1 (stereo not drawn)
→ . | 3.7
OC(CN1CCCCCC1)Cn1c2ccc(Br)cc2c2cc(Br)ccc21 (stereo not drawn)
→ . | -3.1
CN(C)C(=O)CSc1nnc2sc3ccccc3n12
→ 21.0 | .
O=C(C1CC1)N1CCc2cc(S(=O)(=O)NCCCN3CCCCC3)ccc21
→ 13.0 | 4.2
Cc1nn(-c2cc(N3CCOCC3)ccc2N)c(=O)c2ccccc12
→ -1.0 | -0.1
CC(=O)Nc1ccc(Oc2ncnc3sccc23)cc1
→ -8.0 | .
CC1CN(c2ccc(NC(=S)N3CCSCC3)cc2)CC(C)O1 (stereo not drawn)
→ 15.0 | .
Cc1c(CC(=O)O)c(=O)oc2c(O)c(O)ccc12
→ -6.0 | -1.3
CCC(CC)C(=O)Nc1c[nH]c(=O)[nH]c1=O
→ 3.0 | -1.2
COc1ccc([N+](=O)[O-])cc1N1C(=O)C2C3C=CC(O3)C2C1=O (stereo not drawn)
→ . | -5.9
CC1C(=O)Nc2ccc(-c3csc(N)n3)cc21 (stereo not drawn)
→ 2.0 | .
CCS(=O)(=O)/N=C(\N)c1ccccc1
→ 12.0 | 0.2
O=C1CCc2cc(S(=O)(=O)NCc3ccccc3)cc3c2N1CCC3
→ 4.0 | .
CCCN(CCC)S(=O)(=O)c1ccc(C(=O)NC2=C(C(=O)OC)SCC2)cc1
→ 7.0 | .
CCCC(C(=O)NCc1ccccn1)N1Cc2ccccc2C1=O (stereo not drawn)
→ -29.0 | .
OC(c1ccccn1)c1c[nH]c2ccccc12 (stereo not drawn)
→ 29.0 | .
CCOC(=O)C1=C(C)N=c2s/c(=C\c3cc(OC)ccc3OC)c(=O)n2C1c1ccc(SC)cc1 (stereo not drawn)
→ . | 2.3
Cc1ccc2c(N)c(C(=O)c3ccc4c(c3)OCCO4)sc2n1
→ 20.0 | 0.2
COC(=O)c1sc(N2CCOCC2)c(C#N)c1N
→ . | 0.2
N/C(=N/c1nc2ccccc2o1)NC(=O)/C=C/c1ccccc1
→ -11.0 | 1.1
O=CNCCc1nc2ccccc2n1Cc1ccccc1
→ 8.0 | -1.9
O=C(CCC1CCCC1)N1CCN(CC2CC=CCC2)CC1 (stereo not drawn)
→ 16.0 | -8.4
O=C(O)c1c[nH]c2ccc(OC(F)(F)F)cc2c1=O
→ . | -1.2
COC(=O)c1cccnc1NC(=S)NC(C)C
→ 8.0 | 3.1
c1ccc2c3c([nH]c2c1)CCCCCC3
→ . | 0.2
CCOc1ccc(N(CC(=O)Nc2ccc(F)c(Cl)c2)S(=O)(=O)c2ccc(SC)cc2)cc1
→ . | -1.7
Clc1ccccc1-c1nnc2cccc(Cl)n12
→ 14.0 | -0.8
O=C(OCCN1C(=O)c2ccccc2C1=O)c1cc2ccccc2o1
→ 2.0 | 0.1
CC(C)NC(=O)C(C)n1c2ccccc2c2cn[nH]c(=O)c21 (stereo not drawn)
→ -22.0 | .

Other compounds
mol | Sa helicase inh | MgrA-DNA mod
O=C(O)CN1C(=O)/C(=C\c2cccc(Cl)c2Cl)SC1=S | . | 4.5
CCc1ccc(N2C(=O)C3N=NN(CCc4ccc(OC)cc4)C3C2=O)cc1 (stereo not drawn) | 38.0 | .
Clc1ccc(-c2csnn2)cc1Cl | . | -0.6
CC(C)C(C(=O)Nc1ccc(S(=O)(=O)Nc2ncccn2)cc1)N1C(=O)c2ccccc2C1=O (stereo not drawn) | -2.0 | 1.7
Brc1ccc(-c2ccc3ccccc3n2)s1 | . | -1.7
CC(C)CSc1nnc(CSCc2nc(-c3ccc(Cl)cc3)cs2)n1C | . | -0.8
COC(=O)C1=C(C(F)(F)F)OC(C)=C(C#N)C1c1ccccc1-c1ccccc1 (stereo not drawn) | 14.0 | -0.9
CCC(CO)Nc1ncnc2onc(C)c12 (stereo not drawn) | -20.0 | .
C=CCn1c(COc2ccc(CC)cc2)nnc1SC(C)C | -15.0 | .
O=C1N(Cc2ccccc2)C(c2ccccc2)C1(F)F (stereo not drawn) | -1.0 | 3.0
O=C(O)c1ccc(N=NN2CCCC2)cc1 | 6.0 | 1.3
Nc1sc2c(c1-c1nc3ccccc3s1)CCCC2 | -182.0 | .
CC(C)N1C(=O)/C(=C\c2ccc(C(F)(F)F)cc2)SC1=S | -2.0 | .
CCOC(=O)Cn1cc(Br)c(=O)[nH]c1=O | 9.0 | .
O=c1oc2ccc(Cl)cc2cc1-c1nnc(-c2ccc([N+](=O)[O-])cc2)o1 | . | 1.7
COc1ccc2c(c1)CCC(=O)C2 | . | -1.1
CC(C(=O)c1ccccc1)C1(O)C(=O)N(CCc2ccccc2)c2ccccc21 (stereo not drawn) | 3.0 | .
Cc1ccc(C)n1-c1cc(S(=O)(=O)N2CCOCC2)ccc1N1CCCC1 | 7.0 | .
CCOc1cc(CN2CCN(C)CC2)ccc1OCC(=O)Nc1cccc(C(F)(F)F)c1 | -4.0 | .
COc1ccccc1NC(=O)CCc1c(C)nc2nc(CNC(=O)OC(C)(C)C)nn2c1C | -12.0 | .
Cn1cccc1CN1CCN(C(=O)c2cccc(F)c2)CC1 | 3.0 | .
CC[N+](C)(C)Cc1ccco1 | 18.0 | -2.5
Cc1oc(C(C)(C)C)cc1-c1cc(NC(=O)C2CCC2)n(-c2ccc(I)cc2)n1 | -29.0 | .
O=C(Nc1ncccn1)C1c2ccccc2Oc2ccccc21 | 15.0 | .
CC1CCN(C(=O)CN(c2ccccc2)S(C)(=O)=O)CC1 | -6.0 | 2.3
CC(C)(C)c1cc2nc(-c3ccccc3)cc(=O)n2[nH]1 | . | 1.3
CCN(C(=O)Cc1ccccc1OC)c1nnc(-c2ccncc2)s1 | -2.0 | -3.0
CC1CCN(C(=O)c2nn(C)c3c2CCc2sccc2-3)CC1 | 0.0 | .
COc1ccc(C2CC(=O)C3=C(C2)Nc2ccccc2NC3c2ccc(C(F)(F)F)cc2)cc1OC (stereo not drawn) | . | -0.4
CCn1cc(C(=O)N2CCN(c3ccccc3)CC2)c(=O)c2cc(S(=O)(=O)N3CCCCC3)ccc21 | -18.0 | .
CC(=O)N/N=C(\C)c1ccc2c(c1)OCCO2 | 3.0 | .
CSc1nc2ccc(NC(=O)c3ccccc3F)cc2s1 | -21.0 | .
N#CC(C#N)=NNc1ccc(F)cc1C(F)(F)F | -9.0 | .
Cc1ccc(Nc2c(-c3ccco3)nc3ccccn23)cc1 | -12.0 | .
O=C(O)CCNC(=O)NC12CC3CC(CC(C3)C1)C2 | -2.0 | .
O=C(NCCCN1CCC(Cc2ccccc2)CC1)c1noc2ncnc(N3CCCC3)c12 | 9.0 | .
CCOc1ccc(N/C=C2/CCCC(C)C2=O)cc1 (stereo not drawn) | 16.0 | -0.1
CCc1cccc2c(C(C(=O)c3ccccc3)c3c[nH]c4c(CC)cccc34)c[nH]c12 | 10.0 | -1.1
Cc1noc(C)c1CN1c2cccc3cccc(c23)S1(=O)=O | -9.0 | .
O=C(NC1CCCc2ccccc21)C1CCN(S(=O)(=O)c2cccs2)CC1 (stereo not drawn) | 5.0 | 0.5

Complete entries as entered above. Order of values: Sa helicase inh	MgrA-DNA mod
O=C(O)c1c[nH]c2ccc(OC(F)(F)F)cc2c1=O reads .	-1.2
c1ccc(COCC(CSc2ccccc2)OCc2ccccc2)cc1 (stereo not drawn) reads 10.0	6.2
CC(C)C(C(=O)Nc1ccc(S(=O)(=O)Nc2ncccn2)cc1)N1C(=O)c2ccccc2C1=O (stereo not drawn) reads -2.0	1.7
Cc1nn(-c2cc(N3CCOCC3)ccc2N)c(=O)c2ccccc12 reads -1.0	-0.1
Cc1oc(C(C)(C)C)cc1-c1cc(NC(=O)C2CCC2)n(-c2ccc(I)cc2)n1 reads -29.0	.

(further entries)
mol | Sa helicase inh | MgrA-DNA mod
O=C1CNC(c2ccc(Cl)cc2Cl)N1O (stereo not drawn) | -3.0 | 0.2
Cc1csc2ncnc(NCCc3ccc(Cl)cc3)c12 | . | -0.6
CCCOc1ccc2nc(NC(=O)OC)sc2c1 | . | -0.6
CCOC(=O)C(Cc1c[nH]c2ccccc12)NC(=O)COc1ccc(Br)cc1 (stereo not drawn) | . | 2.8
Cc1noc(C)c1/C=C/C(=O)O | 11.0 | .
CN(C)c1ccc(/C=C/C(=O)/C=C/c2ccc3c(c2)OCO3)cc1 | -358.0 | 14.0
CC(C)(C)OC(=O)N1CCCN(C(=S)Nc2cccnc2)CC1 | . | 0.8
O=C(NCCC1=CCCCC1)Nc1c[nH]c2ccccc12 | -16.0 | .
CN(C)c1ccc(/C=N/NC(=O)CCc2ccc(O)cc2)c(Cl)c1 | . | 0.4
Cc1cc(-c2ccc(C)c(S(=O)(=O)NCc3cccnc3)c2)on1 | -3.0 | .
N#CCC12CC3CC(CC(C3)C1)C2 | 7.0 | -1.4
Cc1cc(C)c(NC(=O)C(C)OC(=O)c2ccccc2O)c(C)c1 (stereo not drawn) | 3.0 | .
CC1(C)Cc2cccc(C(=O)N3CCC(c4c[nH]c5ccccc45)CC3)c2O1 | . | 2.3
COC(=O)Cc1c(C)c2ccc(OCC(=O)c3ccc(N4CCCC4)cc3)cc2oc1=O | 8.0 | 1.4
Cc1ccc(Cn2ncn3c(cc4ccccc43)c2=O)cc1 | -4.0 | .
Fc1ccc(-c2cnc(CN3CCCCC3c3nc4ccccc4s3)o2)cc1 (stereo not drawn) | 8.0 | .
Nc1c(C(=O)c2cccs2)sc2nc3c(cc12)CCCC3 | 8.0 | .
CCCC1=C(C(=O)OC)C(c2ccc(C(=O)OC)cc2)NC(=O)N1C (stereo not drawn) | -8.0 | .
Fc1ccc(/C=N/c2nc3ccccc3s2)cc1 | -4.0 | 4.5
O=C(NNc1nc(-c2ccccc2)cs1)c1cccs1 | -13.0 | .
COc1ccc(C2CC(=O)Nc3ncnn32)cc1 (stereo not drawn) | -10.0 | .
CCC1CCCCN1C(=O)c1cc(C)no1 (stereo not drawn) | 3.0 | .

6 compounds drawn at random from the list so far:
mol | Sa helicase inh | MgrA-DNA mod
Nc1c(C(=O)c2cccs2)sc2nc3c(cc12)CCCC3 | 8.0 | .
N#CCC12CC3CC(CC(C3)C1)C2 | 7.0 | -1.4
O=C(NNc1nc(-c2ccccc2)cs1)c1cccs1 | -13.0 | .
CCC1CCCCN1C(=O)c1cc(C)no1 (stereo not drawn) | 3.0 | .
CCCC1=C(C(=O)OC)C(c2ccc(C(=O)OC)cc2)NC(=O)N1C (stereo not drawn) | -8.0 | .
Cc1cc(C)c(NC(=O)C(C)OC(=O)c2ccccc2O)c(C)c1 (stereo not drawn) | 3.0 | .
